# Assay outcomes (PubChem)
# RE007 growth inh – less growth of the S. pombe RE007 Vpr strain; AID 651644; actives 0.21% (n = 360,000); Potency, µM (series often up to 92.2 µM), for inactives: at the highest dose activity change, negative = less growth; S. pombe RE007 Vpr strain, BacTiter-Glo ATP luminescence, 24 h; control for the full effect not named in the record; active = well fitted falling curve with a large enough effect; inconclusive = small, poorly fitted or top-dose-only effect; inactive = no such curve, though single readings can be large or run the other way;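 note: nearly all actives have a fitted effect of over 50% in size; the assay follows cell death caused by Vpr and the record does not say whether a fall means rescue or toxicity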
#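 Fission yeast strain RE007, carrying one chromosomally integrated HIV-1 vpr copy, was seeded at OD 0.01 in PMG+AL medium with 23 nL pinned compound. After 24 h at 30 °C and 99% humidity, viability was read by BacTiter-Glo luminescence.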
# StopGo reporter – FMDV 2A StopGo reporter, luciferase signal | human cells with a luciferase reporter of 2A StopGo recoding; control for the full effect not named in the record | Potency, µM (highest dose often 57.9 µM), inactives show top-dose signal change, negative = less light | actives 1.2% (n = 410,000) | AID 1159524; active = well fitted falling curve with a large enough effect; inconclusive = small, poorly fitted or top-dose-only effect; inactive = no such curve, though single readings can be large or run the other way; tested in HEK293T cells; note: nearly all actives have a fitted effect of over 45% in size; luciferase light after 4 h
# * marks the source's active call; other numbers are inactive results; ? = inconclusive; [ ] = another dose, or the depositor's remark. % is set by controls: 0 for no effect and ±100 for the full control effect; potency is the fitted concentration of half-maximal effect. This is a subset, so the mix of outcomes need not match the whole.
SMILES,RE007 growth inh,StopGo reporter
C[C@H](c1ccccc1)N1C[C@@H](COCc2ccccc2)Oc2cc(N3CC[C@@H](O)C3)ccc2S1(=O)=O,53%,7%
CC(C)CNc1ncnc2c1ncn2[C@H]1CN(Cc2cccc3ccccc23)C[C@@H](CO)O1,10%,-2%
CC1(C(=O)Nc2ccc3c(c2)OCCO3)CSCC(=O)N1C1CCN(Cc2ccccc2)CC1 (stereo not drawn),-20%,-23%
CCCCN1C(=O)C(CC(=O)NCCCN(C)C)CC(C(=O)N2CCOCC2)=C1C (stereo not drawn),-8%,-22%
COc1ccc(C(O)c2ncc(-c3cccc(OCc4ccccc4)c3)[nH]2)cc1F (stereo not drawn),-15%,40%[activator]
CCc1ccc(C(O)c2ncc(-c3ccccc3C(F)(F)F)[nH]2)cc1 (stereo not drawn),6%[18.4 µM],13%
COc1ccc(-c2[nH]nc3nc(N4CCN(C(=O)c5ccoc5)CC4)cc(C(F)(F)F)c23)cc1,11%,?
O=C(C1CCCCC1)N1Cc2ccccc2-n2nncc2C1,0%,-7%
CCOC(=O)[C@]12Cc3cc(Cl)ccc3[C@H]1N(CC(=O)OC)C(=O)c1ccccc12,6%,10µM*
CCCc1c(C(=O)N/N=C(\CC)c2ccccc2)nnn1-c1nonc1N,-16%,-16%
COC(=O)[C@]12CCCCC=C1N(CCc1ccc(OC)c(OC)c1)C(=O)[C@H](CC(=O)NCc1ccccc1)C2,10%,-11%
Cc1ccc(S(=O)(=O)NN2CCCCCC2)cc1,-13%,15%

# Two successive records from above:
SMILES,RE007 growth inh,StopGo reporter
COC(=O)[C@]12CCCCC=C1N(CCc1ccc(OC)c(OC)c1)C(=O)[C@H](CC(=O)NCc1ccccc1)C2,10%,-11%
Cc1ccc(S(=O)(=O)NN2CCCCCC2)cc1,-13%,15%

# More records:
SMILES,RE007 growth inh,StopGo reporter
Cc1cccc(C)c1N1CCN(C(c2ccnc3ccccc23)c2nnnn2-c2ccc3c(c2)OCCO3)CC1 (stereo not drawn),4%,?
COc1ccc(NS(=O)(=O)c2cc(NS(=O)(=O)c3cc(C(=O)O)ccc3OC)ccc2C)cc1,-2%,20%
COc1ccc(C2NC(=O)c3ccccc3N2)c(OC)c1OC (stereo not drawn),11%,-9%
COc1cccc(C(=O)N2CCC[C@H]2C(=O)N2CCC[C@H]2C(=O)NCc2ccc(F)cc2F)c1,0%,-21%
COc1ccc(CC(N)c2csc(NC(=O)NCCc3ccc(OC)c(OC)c3)n2)cc1 (stereo not drawn),-9%,-13%
CCN1CCN(C(C(=O)NC2CCCCC2)c2cc3ccccc3o2)CC1 (stereo not drawn),7%,12%
C#CCNC(=O)C[C@@H]1C[C@@]2(C(=O)OC)CCCCC=C2N(Cc2ccc(Cl)cc2Cl)C1=O,-9%,-13%
O=C(c1nc2ccc(Cl)cn2c1CN1CCC[C@H]1CO)N1CCc2ccccc2C1,-6%,-3%
CC1(Cc2ccc(Cl)s2)C(=O)Nc2c(Cl)ccc(Cl)c21 (stereo not drawn),5%,-30%
C[C@@H]1CN([C@@H](C)CO)C(=O)c2c(c3ccccc3n2C)-c2ccccc2CO[C@H]1CN(C)S(=O)(=O)c1ccc(C#N)cc1,3%,-20%
CC(C)C(=O)N1CCCCCCN1C(=O)C(C)C,-2%,-7%
CCc1oc(-c2ccc(OC)cc2)c(C(=O)OCCCCCO)c1C(C)OCCO (stereo not drawn),-9%,0%
Cn1ccc(=O)c2cc([N+](=O)[O-])ccc21,-8%,-27%
COc1ccc(C(CNC(=O)CCNS(=O)(=O)c2ccccc2)N2CCOCC2)cc1 (stereo not drawn),-17%,-10%
C[C@H](CO)N1C[C@H](C)[C@H](CN(C)S(C)(=O)=O)OCc2ccccc2-c2c(n(C)c3ccccc23)C1=O,-16%,71%[activator]
CC1(C(=O)Nc2cccc(C#N)c2)CCN1C(=O)C1(c2ccccc2)CC1 (stereo not drawn),6%,-25%
CCOC(=O)C1CCCN(C(=O)c2[nH]c(C(F)(F)F)nc2-c2ccccc2)C1 (stereo not drawn),9%,-8%
S=C(NN=Cc1ccccn1)Nc1ccccn1,-17%,-18%
CC(=O)N1N=C(c2ccc(Br)cc2)CC1c1cccc([N+](=O)[O-])c1 (stereo not drawn),-9%,?
COC(=O)C1=C(C)N(CCCC(=O)O)C(=O)NC1c1ccc(C#N)cc1 (stereo not drawn),25%,-1%
CC(C)NC(=O)C1(C)CSCC(=O)N1Cc1cccc(F)c1 (stereo not drawn),9%,-15%
CN(CCc1ccccc1)C(=O)c1cccc(NC(=O)Cc2cccc(NC(=O)C3CCN(C(=O)C4CCC4)CC3)c2)c1,-20%,-18%
CCCCNC(=O)C1(C)CCN1C(=O)c1ccc(OC)c(F)c1 (stereo not drawn),4%[18.4 µM],-12%
COc1ccc2[nH]cc(C(=O)CN(C)C)c2c1,-3%,-17%
O=C(C#Cc1ccccc1)c1ccccc1,?,?
NC(c1csc(Nc2cc(NCc3ccco3)ncn2)n1)c1ccccc1Cl (stereo not drawn),-9%,?
Cc1nc(NC(=O)c2ccccc2)sc1-c1cc(C(=O)NCCO)nn1Cc1ccccc1,0%,3%
CCOC(=O)C1(C)CCN1C(=O)c1cccc(OC)c1 (stereo not drawn),10%,2%
CC(O)(c1cccc(F)c1)c1nc(-c2ccc(Cl)cc2)cs1 (stereo not drawn),?,?
COCCNC(=O)C1(C)CCN(Cc2csc(-c3ccc(Cl)cc3)n2)C1 (stereo not drawn),-12%[18.4 µM],-15%
CCc1noc(C)c1C(=O)N(CC)CC(=O)NCc1ccc(F)cc1,5%,-21%
Cc1cccc(NC(=O)c2ncn3c2C(=O)N[C@H](C)C3)c1,32%,-14%
CCC(c1nnnn1-c1c(C)cccc1C)N1CCCN(Cc2ccc(F)cc2)CC1 (stereo not drawn),-29%,-3%
COC(=O)C1=CN(c2c(C)cc(C)cc2C)C(N)=C(C#N)C1c1cccc(F)c1 (stereo not drawn),2%,-18%
C[C@@H]1CNC(=O)c2c(C(=O)Nc3ccc(CNC(=O)OC(C)(C)C)cc3)ncn21,-5%,?
COc1ccc(CN2Cc3cnnn3-c3ccccc3C2C)cc1 (stereo not drawn),5%,-15%

# An excerpt of these results, bar-delimited.
smiles | RE007 growth inh | StopGo reporter
CCOC(=O)C1CCCN(C(=O)c2[nH]c(C(F)(F)F)nc2-c2ccccc2)C1 (stereo not drawn) | 9% | -8%
S=C(NN=Cc1ccccn1)Nc1ccccn1 | -17% | -18%
CC(=O)N1N=C(c2ccc(Br)cc2)CC1c1cccc([N+](=O)[O-])c1 (stereo not drawn) | -9% | ?
COC(=O)C1=C(C)N(CCCC(=O)O)C(=O)NC1c1ccc(C#N)cc1 (stereo not drawn) | 25% | -1%
CC(C)NC(=O)C1(C)CSCC(=O)N1Cc1cccc(F)c1 (stereo not drawn) | 9% | -15%
CN(CCc1ccccc1)C(=O)c1cccc(NC(=O)Cc2cccc(NC(=O)C3CCN(C(=O)C4CCC4)CC3)c2)c1 | -20% | -18%
CCCCNC(=O)C1(C)CCN1C(=O)c1ccc(OC)c(F)c1 (stereo not drawn) | 4%[18.4 µM] | -12%
COc1ccc2[nH]cc(C(=O)CN(C)C)c2c1 | -3% | -17%
O=C(C#Cc1ccccc1)c1ccccc1 | ? | ?
NC(c1csc(Nc2cc(NCc3ccco3)ncn2)n1)c1ccccc1Cl (stereo not drawn) | -9% | ?
Cc1nc(NC(=O)c2ccccc2)sc1-c1cc(C(=O)NCCO)nn1Cc1ccccc1 | 0% | 3%
CCOC(=O)C1(C)CCN1C(=O)c1cccc(OC)c1 (stereo not drawn) | 10% | 2%
CC(O)(c1cccc(F)c1)c1nc(-c2ccc(Cl)cc2)cs1 (stereo not drawn) | ? | ?
COCCNC(=O)C1(C)CCN(Cc2csc(-c3ccc(Cl)cc3)n2)C1 (stereo not drawn) | -12%[18.4 µM] | -15%
CCc1noc(C)c1C(=O)N(CC)CC(=O)NCc1ccc(F)cc1 | 5% | -21%
Cc1cccc(NC(=O)c2ncn3c2C(=O)N[C@H](C)C3)c1 | 32% | -14%
CCC(c1nnnn1-c1c(C)cccc1C)N1CCCN(Cc2ccc(F)cc2)CC1 (stereo not drawn) | -29% | -3%

# Other results follow.
SMILES,RE007 growth inh,StopGo reporter
Cc1ccccc1Nc1n[nH]c(=S)s1,-12%,7%
O=P(c1ccccc1)(c1ccccc1)C(O)c1cccs1 (stereo not drawn),-4%,-5%
COc1ccc(OC)c(S(=O)(=O)Oc2ccc(N)c3ccccc23)c1,-15%,4%
Fc1cccc(Cc2c(-c3ccco3)nc3ccc(Br)cn23)c1,-10%,35µM*
COc1ccc(CCNC(=O)Nc2nc(C(N)CCc3ccccc3)cs2)cc1OC (stereo not drawn),10%,0%
COc1cc(C)ccc1S(=O)(=O)NC(=O)C1(C)CCN1C(=O)c1ccc(C2CCCCC2)cc1 (stereo not drawn),-10%,3%
Cc1cncc(N2CCN(c3ccccn3)CC2)n1,-16%[18.4 µM],6%
COc1ccc(-c2ccc3oc(-c4ccc(OC)cc4)c(-c4ccc(OC)cc4)c3c2)cc1,-1%,-22%
CC(=O)N1Cc2cnnn2-c2ccccc2C1C#N (stereo not drawn),7%,-1%
CCN(CC)C(=O)C1=C(C)N(CCCN2CCCC2=O)C(=O)C(CC(=O)NCCCN(C)C)C1 (stereo not drawn),0%,?
COc1cccc(Nc2nc(C(N)CCc3ccccc3)cs2)n1 (stereo not drawn),10%[18.4 µM],-13%
CC(C)C1CN1CC(O)Cn1ccnc1[N+](=O)[O-] (stereo not drawn),8%,-2%
COc1ccc(NC(=S)NNC(=O)c2ccco2)c(OC)c1,18%,6%
CCC(C(=O)NC1CCCC1)n1c(-c2ccnc3ccccc23)nc2ccccc21 (stereo not drawn),5%,-19%
CC1(C(=O)NS(=O)(=O)c2ccc(C#N)cc2)CCN1C(=O)C1(c2ccc(Cl)cc2)CCC1 (stereo not drawn),-2%,0%
O=C(c1[nH]c(C(F)(F)F)nc1-c1ccccc1)N1CCCN(Cc2ccc(F)cc2)CC1,-13%,2%
O=C(NCc1cccc(C(F)(F)F)c1)c1csc([C@@H]2C[C@H](O)[C@@H](CO)O2)n1,-1%,-19%
COCCN(CCOC)Cc1cc(=O)oc2cc(OC)c(Cl)cc12,-2%,-12%
O=C(CC1SCCNC1=O)NCc1ccccc1 (stereo not drawn),-22%,-7%
O=C(c1ccco1)N1CCN(C2CN(Cc3ccc(F)cc3)S(=O)(=O)C2)CC1 (stereo not drawn),1%,-4%
Cc1ccc2nc(-c3cccc(Br)c3)c(Cc3ccccn3)n2c1,?,14%
CC(C)(C)Cc1c(-c2ccc(C#N)cc2)nc2ccc(Cl)cn12,-17%,-27%
COc1cccc2sc(=NC(=O)CS(=O)(=O)c3ccccc3)n(C)c12,-20%,41%[activator]
O=C(C(=O)N1CCN(c2ccccc2)CC1)c1ccc2c(c1)OCO2,-8%,-11%
Cc1ccc(S(=O)(=O)N(C)C[C@@H]2OCc3cn(nn3)CCCC(=O)N([C@@H](C)CO)C[C@H]2C)cc1,-1%,0%
COc1cccc(CNC(=O)c2cc3c(c(-c4cccc(-c5cccc(C#N)c5)c4)n2)[C@H](CCO)N(S(=O)C(C)(C)C)C3)c1 (stereo partly drawn),1%,0%
COc1ccc(Cl)cc1-c1cc(C(=O)NCc2cccc(C(F)(F)F)c2)[nH]n1,16%[18.4 µM],10%
O=C(NCCN1CCC(n2c(=O)[nH]c3ccccc32)CC1)c1ccncc1,-20%,0%
COCCNC(=O)C1(C)CCN(C(=O)c2sc(-c3ccccc3)nc2C)C1 (stereo not drawn),-6%,?
C[C@H]1CN([C@@H](C)CO)C(=O)CCCn2cc(nn2)CO[C@@H]1CN(C)S(=O)(=O)c1cccc(C#N)c1,2%,-1%
CCNC(=O)C1CCCN(C(=O)c2cccc3ccccc23)CC1 (stereo not drawn),-16%,0%
COc1cc2c(cc1O)C(CSC)Cc1cc3c(cc1N(C)CC2)OCO3 (stereo not drawn),-12%,-21%
CCc1nc2c(OCCC3CCCCC3)cccn2c1N(C=O)Cc1ccccc1,-23%,?
c1ccc2c(c1)CN(Cc1ccc3c(c1)OCO3)Cc1cnnn1-2,14%,-10%
COc1cc(CCN=Cc2cc(Cl)cc(Cl)c2O)c([N+](=O)[O-])cc1OC,-28%[18.4 µM],-17%
COc1cccc(CNC(=O)c2cc(S(=O)(=O)N3CCCCC3)ccc2C)c1,1%,?
CCc1nc2ccc(C(=O)Nc3cccc(OCC(=O)N(C)C)c3)cn2c1N(C)C(=O)c1ccncc1,-1%,2%
CCCCC(=O)N(C)c1c(CC)nc2c(OCC(=O)C(C)(C)C)cccn12,-4%,-1%
O=C(NCc1cccc(C(F)(F)F)c1)c1csc([C@@H]2O[C@H](CO)[C@H](O)[C@H](O)[C@H]2O)n1,0%[18.4 µM],-23%
C#CCN(C[C@@H]1[C@@H](OC(=O)Nc2cccs2)[C@@H](OC(=O)Nc2cccs2)Cn2c(=O)ccc(=O)n21)S(=O)(=O)c1ccc(C)cc1,7%,?
CC(O)(c1ccc(F)c(F)c1)c1nc(-c2csc3ccccc23)cs1 (stereo not drawn),5%[18.4 µM],-12%
CCOC(=O)N(C)C[C@H]1OCc2cnnn2CCCC(=O)N([C@H](C)CO)C[C@H]1C,-9%,-19%
Cc1ccc(CNC(=O)c2ccc3c(c2)S(=O)(=O)c2ccccc2C3=O)o1,-2%,5%
COC(=O)c1cc(C)nc(Nc2nc(C(N)Cc3ccc(Cl)cc3)cs2)n1 (stereo not drawn),9%[18.4 µM],-4%
CC1CCCCC1NC(=O)CN1CCC(NC(=O)C(C)(C)C)CC1 (stereo not drawn),-6%,?
